TRPML1 blocker – inhibitors of human TRPML1 channel; Q9GZU1; TRPML1-inducible cells, Ca2+ dye fluorescence, FDSS; hits give low values; inhibition of EC80 agonist-evoked calcium signal; activity change, negative = inhibition, % (no concentration beside the values); hit rate 0.02% among 390,000; in the data active means activity change below about -50%; inconclusive means about -30% to -50%; inactive means above about -30%;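 note: stimulus is agonist 54-4 at its EC80 concentration; % is set by controls: 0 for no effect and ±100 for the full control effect; compound concentration not given in the record; the text of the record puts the active cut at -80%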
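TRPML1-DL cells, Tet-induced overnight (~16 h, 37 °C) at 1,500 cells/well, were loaded with Ca8 no-wash dye plus quencher for 45-90 min at room temperature. Compounds were pinned during FDSS kinetic reading; agonist 54-4 at EC80 (4 uM final) then added.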
Six1-Eya2 blk – inhibitors of human Six1/Eya2 interaction | Q15475+O00167 | AlphaScreen GST-Six1/His-Eya2 binding, biochemical; hits give low values; control for the full effect not named in the record | activity change, % (concentration not given with the values) | hit rate 0.56% among 360,000; in the data active = activity change below about -65%; inconclusive = about -30% to -65%; inactive = above about -30%; note: % is set by controls: 0 for no effect and ±100 for the full control effect
Target sequence (O00167 whole entry, looked up): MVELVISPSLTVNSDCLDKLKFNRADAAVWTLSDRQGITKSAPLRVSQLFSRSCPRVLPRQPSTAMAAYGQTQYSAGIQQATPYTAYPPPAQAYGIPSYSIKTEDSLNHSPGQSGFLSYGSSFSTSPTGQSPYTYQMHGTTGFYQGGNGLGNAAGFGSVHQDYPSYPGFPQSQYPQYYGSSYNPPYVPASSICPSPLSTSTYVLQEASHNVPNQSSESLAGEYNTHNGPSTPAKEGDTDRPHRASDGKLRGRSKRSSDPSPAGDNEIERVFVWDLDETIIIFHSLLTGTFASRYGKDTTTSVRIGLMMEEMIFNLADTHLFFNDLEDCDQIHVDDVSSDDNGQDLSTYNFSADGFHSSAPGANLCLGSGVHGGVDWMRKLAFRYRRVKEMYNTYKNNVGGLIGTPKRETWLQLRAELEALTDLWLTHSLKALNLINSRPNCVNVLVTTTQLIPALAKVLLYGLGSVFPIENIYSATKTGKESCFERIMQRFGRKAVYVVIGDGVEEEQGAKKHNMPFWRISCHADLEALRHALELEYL
Target sequence (Q15475 whole entry, looked up): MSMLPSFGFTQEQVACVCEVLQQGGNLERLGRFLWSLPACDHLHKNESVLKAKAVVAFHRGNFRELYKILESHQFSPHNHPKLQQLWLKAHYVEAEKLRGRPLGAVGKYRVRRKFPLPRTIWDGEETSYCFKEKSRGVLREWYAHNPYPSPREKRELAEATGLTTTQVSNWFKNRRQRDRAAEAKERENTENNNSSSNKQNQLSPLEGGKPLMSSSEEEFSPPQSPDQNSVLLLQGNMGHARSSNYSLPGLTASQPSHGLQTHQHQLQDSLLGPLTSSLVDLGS
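AlphaScreen with GST-Six1 and His-Eya2 (5X mix: 250 nM and 500 nM), glutathione donor and nickel acceptor beads; buffer 50 mM Tris pH 8.0, 300 mM NaCl, 1 mM TCEP; 1 h at 37 C in the dark.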
D2 agonist – human D2 receptor agonism in beta-arrestin assay; P14416; DiscoveRx PathHunter D2 beta-arrestin, luminescence, 90 min; 100% = 57 uM dopamine signal; activation, % (test concentration not listed); hit rate 0.084% among 360,000; AID 624465; in the data active = activation above about 40%; inconclusive = about 15% to 40%; inactive = below about 15%; note: compound concentration not given in the record; the text of the record calls up to 30% inactive
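DiscoveRx PathHunter D2 beta-arrestin cells (2,100/well) attached overnight, then compound-stimulated 90 min at 37 C in HBSS/10 mM HEPES/0.1% Tween-20 buffer; beta-galactosidase complementation read by luminescence after 1 h at ambient temperature. Dopamine 57 uM final (EC100) as control.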
PINK1 expr mod – changes PINK1 expression; Potency, µM (titrated, usually from 76.6 µM), inactives show at the highest dose activation (PINK1 increase), most hits filed as activators; AID 624263; PINK1 immunofluorescence, high-content cytometry, 24 h; hit rate 0.2% among 410,000; active = well fitted activation curve with a large enough effect; inconclusive = small, poorly fitted or top-dose-only effect; inactive = flat fitted curve, though single readings scatter; cell line not stated here;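 note: potency is the fitted concentration of half-maximal effect; % of control where 0% means no effect; nearly all actives have a fitted effect of over 65% in size; a mitochondrial uncoupler was the plate control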
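PINK1 protein, normally rapidly degraded, was detected by immunofluorescence after 24 hour compound treatment of a stable cell line. Titration data (5 concentrations) came from laser-scanning cytometry, with CCCP-treated wells as controls.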
D2 potentiator – positive allosteric modulators of human D2 dopamine receptor. P14416. DiscoveRx D2 beta-arrestin cells, luminescence, 90 min; 100% = 57 uM dopamine signal. potentiation, % (no concentration beside the values). hit rate 0.23% among 360,000. AID 624464; active = potentiation of 50% or more; inconclusive = 30% to 50%; inactive = 30% or less;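 note: compound concentration not given in the record; tested on top of an EC20 dose of dopamine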
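PathHunter D2 cells, attached overnight at 37 deg C, received compound in DMSO plus dopamine at EC20 (50 nM final) for 90 min at 37 deg C. Beta-arrestin recruitment was read as luminescence after 1 h with detection reagent at ambient temperature.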
TRPML1 agonist – human mucolipin-1 channel agonism; activation, % (no concentration beside the values); AID 624414; TRPML1-expressing cells, Ca2+ dye fluorescence, FDSS; host cell line not named in the record; reference of the full effect not given here; hit rate 0.12% among 410,000; Q9GZU1; in the data active = activation above about 50%; inconclusive = about 30% to 50%; inactive = below about 30%; note: 0% is about no effect; the text of the record puts the active cut at 80%
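Kinetic FDSS Ca2+ read in Tet-induced TRPML1-DL cells (ABD Ca8 dye plus quencher, 45-90 min RT loading): baseline, then compound, then 110 s agonist window; EC80 agonist 54-4 at 4uM final added afterwards for a 110 s antagonist window.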
An asterisk follows results filed as active; . = not tested or not shown; [ ] = remark or other dose.

Short forms – A = TRPML1 blocker; B = Six1-Eya2 blk; C = D2 agonist; D = PINK1 expr mod; E = D2 potentiator; F = TRPML1 agonist
COc1cc(OC)c(Nc2nc3ccccc3nc2-n2nc(C)cc2C)cc1Cl
  A: -3	B: .	C: .	D: 0.8%	E: .	F: 3.0

Cc1[nH]ncc1-c1ccccc1Cl
  A: 0	B: 3	C: -5.3	D: 0.0%	E: -21	F: -0.6

CCOC(=O)c1c(C)[nH]c(C)c1S(=O)(=O)N(C)CC(=O)Nc1ccc(OC)cc1
  A: 6	B: .	C: .	D: 2.1%	E: .	F: -1.0

Cc1ccc(CNC(=O)C2CCCN2C(=O)Nc2ccc(F)cc2)cc1 (stereo not given)
  A: -5	B: 3	C: 0.2	D: 0.4%	E: -3	F: -0.4

O=[N+]([O-])c1ccc(Sc2nnnn2-c2ccccc2)c(Cl)c1
  A: 33	B: -29	C: 13	D: 1.5%[38.3 µM]	E: 30	F: 0.8

COc1ccc(CCCC(=O)NCC(=O)N/N=C/c2cc(Cl)ccc2OC)cc1
  A: 32	B: -12	C: 1.0	D: 3.5%	E: -12	F: 1.2

CCCNC(=O)C1(C)CCN(C(=O)c2sccc2C)C1 (stereo not given)
  A: .	B: 4	C: -4.0	D: 0.6%	E: -5	F: -0.1

Cc1sc2nc(SCc3nc(-c4cccs4)no3)n(-c3ccccc3)c(=O)c2c1C
  A: -7	B: -9	C: 0.1	D: 1.0%[38.3 µM]	E: 9	F: 1.7

O=S(=O)(Cc1ccccc1)C1CCCCC1O (stereo not given)
  A: -11	B: 12	C: 0.8	D: 0.7%	E: -12	F: -0.5

O=C(CSc1nnc(NC(=O)c2ccccc2Cl)s1)NC1CC1
  A: -4	B: 3	C: -0.6	D: 1.0%	E: -7	F: -0.5

CCN(CC)S(=O)(=O)c1cccc(C(=O)N[C@H](C(=O)NNC(=O)c2ccccc2)C(C)C)c1
  A: 0	B: -8	C: -0.6	D: 0.9%	E: 1	F: -1.1

NC(=O)CSc1nc2cc(Cl)ccc2c(=O)n1C1CCCCC1
  A: -15	B: 4	C: 0.1	D: 0.0%	E: -2	F: 3.0

O=C(Nc1cc(Cl)ccc1Cl)C1(c2cccs2)CCOCC1
  A: -2	B: .	C: .	D: 0.6%	E: .	F: 3.4

CCOC(=O)c1ccccc1NC(=O)c1c(N)n(C)c(=O)[nH]c1=O
  A: 8	B: 9	C: 0.1	D: 1.0%	E: -22	F: -1.1

Cc1ccc(N=C2SCCCN2C(=O)c2ccco2)cc1Cl
  A: 5	B: 4	C: -0.8	D: 3.3%	E: -23	F: 0.7

COc1cccc(NC(=O)CN2C(=O)CSc3ccc(S(=O)(=O)N4CCCCC4)cc32)c1
  A: -9	B: -4	C: 0.6	D: 1.5%	E: -10	F: 1.4

O=C1CCN(S(=O)(=O)c2cc(C(F)(F)F)ccc2Cl)CC1
  A: 12	B: 4	C: -1.1	D: 2.5%	E: -2	F: -0.3

O=C(NCCCN1CCOCC1)C(=O)NCc1ccccc1Cl
  A: -7	B: 2	C: -0.3	D: 0.5%	E: 0	F: 0.0

O=C(NN=Cc1ccccc1C(=O)O)C(=O)NN=Cc1ccccc1C(=O)O
  A: 9	B: -15	C: -1.1	D: -0.3%	E: -4	F: 2.1

CCOc1ccc(CNc2nc3nc(C)c(Cc4ccccc4)c(=O)n3[nH]2)cc1
  A: 9	B: .	C: .	D: 0.2%	E: .	F: 1.5

CC(=O)Nc1sc2c(c1C(c1ccc(Cl)cc1)N1CCOCC1)CCCC2 (stereo not given)
  A: -9	B: -11	C: -1.3	D: 4.6%	E: -34	F: 1.0

O=C(O)CCCNC(=O)c1cncc(O)c1
  A: -12	B: 4	C: -1.5	D: -1.2%	E: 0	F: 0.0

O=S(=O)(Cc1ccccc1)NCc1cccnc1
  A: -6	B: 5	C: 2.8	D: -0.6%[38.3 µM]	E: -7	F: 0.2

Cc1ccc(-c2cc(C(=O)NCCCN3CCCC3)c3ccccc3n2)cc1C
  A: -5	B: 16	C: 1.9	D: -1.6%	E: -8	F: -0.1

NC(=O)C1=C[C@@H](C2CCCCC2)C[C@@H](OCCCCO)O1
  A: -4	B: -1	C: -2.9	D: 0.3%	E: -32	F: -1.1

COCCCn1c(SCc2nnc(-c3ccc(OC)c(OC)c3)o2)nc2ccccc2c1=O
  A: -10	B: 6	C: -1.5	D: 1.4%[38.3 µM]	E: -7	F: -0.5

CN1CCN(C(=O)c2ccc(Oc3ccc([N+](=O)[O-])cc3)cc2)CC1
  A: 54	B: -1	C: 0.0	D: -1.1%	E: -4	F: -0.4

O=C(NCc1ccc(Cl)cc1)C1CCCN(c2cnccn2)C1 (stereo not given)
  A: 4	B: -4	C: -3.1	D: -0.8%	E: -11	F: -0.6

CC(NCc1cc(Br)ccc1OCC(=O)NCc1ccccc1)c1ccccc1 (stereo not given)
  A: 55	B: -8	C: -0.4	D: -2.3%	E: -9	F: 1.9

COc1cc(COCC(O)CN2CCN(Cc3ccccc3)CC2)cc(OC)c1OC (stereo not given)
  A: -8	B: 2	C: -0.7	D: -0.2%	E: -9	F: 0.3

CCN(CC)CCCN1C(=O)CSC1c1ccc([N+](=O)[O-])cc1 (stereo not given)
  A: 37	B: 6	C: 4.1	D: -0.2%	E: -10	F: 0.4

Cc1nc2ccccc2n1CC(=O)NC(C)C1CC2CCC1C2 (stereo not given)
  A: -1	B: 4	C: 4.2	D: 1.4%	E: -1	F: -0.3

Cc1ccn(CC(=O)N2CCCC(N3CCN(c4ccccc4F)CC3)C2)n1 (stereo not given)
  A: 28	B: 2	C: 1.9	D: 0.0%	E: -10	F: 0.6

CC(C)Nc1ncnc2c1nnn2Cc1ccccc1
  A: -2	B: 0	C: -0.7	D: -3.0%	E: -3	F: 0.8

CN(CC(=O)Nc1ccc(Cl)c(C(F)(F)F)c1)C(=O)CC1Sc2ccccc2NC1=O (stereo not given)
  A: 4	B: -1	C: -2.3	D: 14%	E: -19	F: 0.2

c1ccc(Cc2nnc3sc(-c4cccnc4)nn23)cc1
  A: -21	B: -4	C: -4.1	D: -3.7%[38.3 µM]	E: -17	F: 1.8

COCCNC(=O)COc1cccc(Oc2ccccc2)c1
  A: 3	B: 4	C: -2.3	D: .	E: 1	F: 0.7

CN(C)S(=O)(=O)c1ccc(C(=O)NCCc2ccco2)cc1
  A: -8	B: -3	C: -1.8	D: 3.2%	E: -2	F: -0.8

CCc1ccc2nc(N3CCC(C(=O)NCCC(C)C)CC3)sc2c1
  A: -13	B: .	C: .	D: 5.3%	E: .	F: -0.1

NC(=O)Cc1ccc(Nc2nnc(-c3ccccc3)c3ccccc23)cc1
  A: 20	B: 0	C: -1.9	D: -2.3%	E: -13	F: -0.1

CCOC(=O)CC1=NN(c2ccccc2)C(=O)C1
  A: 11	B: 5	C: 5.7	D: 2.7%	E: -9	F: 2.2

CCCCN(C(=O)c1cc2c(s1)CCCC2)c1c(N)n(CCC)c(=O)[nH]c1=O
  A: -8	B: -2	C: -1.5	D: -1.6%	E: -2	F: 0.0

Cc1ccc(NC(=O)c2ccc(Oc3ncccn3)cc2)cc1
  A: 6	B: 3	C: -0.9	D: -0.8%	E: 1	F: -0.6

CCC(C)CCN1C(Nc2ccccc2)=NC[C@@H]1C (stereo not given in full)
  A: 17	B: 1	C: -1.2	D: 0.9%	E: -14	F: -0.3

Cc1cccc(OCC(O)CN2CC3(C)CC2CC(C)(C)C3)c1 (stereo not given)
  A: 5	B: 4	C: -0.9	D: 2.9%	E: -5	F: -0.6

CC(NC(=O)C(C)(C)C)c1nc2ccccc2n1C (stereo not given)
  A: -3	B: -11	C: -3.3	D: 0.4%	E: -9	F: -0.4

N#C/C(=C\c1ccc(N2CCOCC2)cc1)c1ccccc1
  A: 88	B: -1	C: -2.0	D: -0.5%	E: 8	F: 1.4

O=C(NCc1ccc(F)cc1)C1CCC(CNS(=O)(=O)c2ccccc2)CC1 (stereo not given)
  A: 13	B: 7	C: -5.1	D: 3.5%	E: -9	F: 1.4

COc1ccccc1/C=N/N1CCN(c2ccc(Cl)cc2)CC1
  A: .	B: -23	C: -4.8	D: 1.2%	E: -20	F: .

Cc1ccccc1-c1nnc(SCc2ccc(F)cc2)o1
  A: -7	B: 43	C: -1.6	D: 24%[38.3 µM]	E: -14	F: 0.1

Further structures.
Short forms – A = TRPML1 blocker; B = Six1-Eya2 blk; C = D2 agonist; D = PINK1 expr mod; E = D2 potentiator; F = TRPML1 agonist
CCN(Cc1ccccc1)C(=O)c1c[nH]c2ccc(S(=O)(=O)N(C)CCC#N)cc2c1=O
  A: 15	B: -5	C: -1.2	D: 1.4%	E: -1	F: -0.7

COc1ccc(-c2noc(-c3ccc(NCc4ccco4)c([N+](=O)[O-])c3)n2)cc1OC
  A: 8	B: .	C: .	D: 1.0%	E: .	F: -1.1

O=S(=O)(c1cccs1)N1CCN(c2ccc(F)cc2)CC1
  A: -9	B: -2	C: 0.5	D: -0.4%	E: -5	F: 1.2

O=C(COc1ccccc1Br)N1CCN(C(=O)c2cccs2)CC1
  A: 26	B: 5	C: 0.4	D: 0.8%	E: 2	F: 0.4

Cc1cc(C)n2nc(-c3cnn(C)c3C(F)(F)F)cc2n1
  A: -12	B: 0	C: -0.2	D: -1.0%	E: 5	F: -0.7

High-throughput results: PubChem BioAssay, National Center for Advancing Translational Sciences (NCATS)

An unsorted share of the library. About 1% of those tested had a hit in this group.
